Rango dissoc inh: inhibition of RanGTP-driven Rango-importin beta dissociation. Biochemical FRET Rango-importin beta, RanGTP-induced dissociation. Potency, µM (doses to about 46.1 µM), inactives show at the highest dose activity change, negative = inhibition. 340,000 tested, 0.071% active. O95149+P62826; active means falling FRET ratio curve, often poorly fitted, with flat reads before Ran was added; inconclusive means other falling curves, or compound fluorescence or quenching; inactive means flat or rising ratio curve;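 also: potency is read from the fitted curve at half-maximal effect; % of control where 0% means no effect; nearly all actives have a fitted effect of over 45% in size; -100% = wells without RanGTP and RCC1; the record marks most hits as doubtful in a second field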
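Compounds sat 5 min at room temperature with 0.1 uM Rango biosensor plus 0.25 uM importin beta, then FRET pre-read. RanGTP-RCC1 (0.6 uM Ran, 2mM GTP, 0.2 uM RCC1) added for 45 min, and the CFP/YFP post-read measured blocked complex dissociation.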
GLA inh pH 4.5: inhibitors of human alpha-galactosidase A at pH 4.5 | purified enzyme, 4-MU-alpha-Gal fluorescence, pH 4.5 | activity change, negative = inhibition, % at 105 µM | 230,000 tested, under 10 active; inconclusive = small, poorly fitted or top-dose-only inhibition, or a rising curve; inactive = flat fitted curve, though single readings scatter; no compound was filed as active;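 also: 0% = full activity with enzyme and -100% = basal without enzyme; dose as in the result columns while the protocol names 77 µM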
Target sequence (P06280 whole entry, looked up): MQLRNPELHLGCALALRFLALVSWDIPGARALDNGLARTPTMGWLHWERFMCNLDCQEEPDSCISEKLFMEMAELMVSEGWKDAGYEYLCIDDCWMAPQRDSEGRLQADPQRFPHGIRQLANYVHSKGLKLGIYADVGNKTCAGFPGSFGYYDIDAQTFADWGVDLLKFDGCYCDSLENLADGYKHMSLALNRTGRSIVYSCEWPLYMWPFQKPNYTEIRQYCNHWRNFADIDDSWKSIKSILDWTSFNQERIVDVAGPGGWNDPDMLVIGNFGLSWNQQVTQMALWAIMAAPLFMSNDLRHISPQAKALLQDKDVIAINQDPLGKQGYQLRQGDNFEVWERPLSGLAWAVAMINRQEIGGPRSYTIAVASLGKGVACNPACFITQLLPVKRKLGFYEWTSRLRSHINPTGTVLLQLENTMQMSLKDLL
Rango-impB inh: inhibitors of Rango-importin beta complex formation | Q14974 | Rango CFP/YFP FRET sensor + importin beta, 45 min | Potency, µM (top dose mostly 92.2 µM), for inactives: top-dose inhibition of complex formation | 340,000 tested, 0.031% active | AID 540263; active = rising FRET ratio curve, often small or poorly fitted; inconclusive = mostly compound fluorescence or quenching in the first reads; inactive = flat curves in all reads;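 also: potency is read from the fitted curve at half-maximal effect; 0% = DMSO wells and 100% = buffer wells lacking importin beta; nearly all actives have a fitted effect of over 15% in size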
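Inhibition scored from the CFP 486 nm/YFP 530 nm FRET ratio 45 min after adding 0.125 microM importin beta to 50 nM Rango biosensor preincubated 5 min with compound (room temperature, PBS with DTT, Tween-20, BSA). No-importin wells as positive control.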
miR-21 FLuc: raises the signal of a miR-21 reporter; HeLa miR-21 FLuc reporter, luciferase, 48 h; Potency, µM (top dose mostly 38.3 µM), without a hit: at the top dose reporter change, positive = more light; 340,000 tested, under 10 active; AID 2288; active = well fitted rising curve with a large enough effect; inconclusive = small, poorly fitted or top-dose-only effect; inactive = no such curve, though single readings can be large or run the other way;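 also: % of control where 0% means no effect; miR-21 action dims this reporter so a rising signal means less miR-21 action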
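HeLa cells endogenously expressing miR-21, stably carrying CMV-driven firefly luciferase with a downstream miR-21 binding site, 2000 cells/well. Titrations up to approximately 40 uM, 48 hours; luciferase luminescence read.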
* = called active by the depositor; u = inconclusive; x = not tested or not shown; & = joins results of further samples; [ ] = remark or other dose.

Rango dissoc inh	GLA inh pH 4.5	Rango-impB inh	miR-21 FLuc	Compound
-18%	x	0.3%	x	O=C(OCC(=O)N1CCOCC1)c1cc(-c2ccccc2)nc2ccccc12
12%	x	-0.1%	x	CCCN(CC(=O)Nc1ccccc1OC)C(=O)CC1CCCC1
1%	-25	-2.6%	-5%	CSc1nsc(SC)c1NC(=O)OCC1CCCO1 (configuration not stated)
-11%	-3	-5.0%	-5%	CCOC(=O)Nc1ccc2c(c1)N(C(=O)N(C)C)c1ccccc1CC2
-12%	-20	4.6%	-60%	CCCNC(=O)OCc1cccnc1Sc1ccc(C)cc1
22%	-11	-2.4%	0%	COc1ccc(C(=O)CN(C(=O)c2ccc(Cl)cc2)N2C(=O)c3ccccc3C2=O)cc1
17%	5	3.7%	0%	O=c1c2cc(Cl)ccc2nc(-c2ccc(Cl)c(Cl)c2)n1O
5%	u	0.4%	3%	CCCOc1ccc([N+](=O)[O-])cc1C1NC(=S)NC(c2ccccc2)=C1C(=O)OCC (configuration not stated)
29%	-17	4.1%	-2%	COc1nc(OCCNS(=O)(=O)c2ccc(C)cc2)nc(N(C)C)n1
-2%	-6	-0.5%	-5%	Cc1cccc2cc(C(c3nnnn3C(C)(C)C)N3CCN(C(=O)c4ccco4)CC3)c(=O)[nH]c12 (configuration not stated)
u	-10	u	-1%	Cc1ccc(C(=O)O)cc1-c1ccc(/C=C2\SC(=O)N(CC(=O)Nc3ccccc3)C2=O)o1
0%	2	0.5%	2%	Cn1c(NC(=O)C[n+]2cc(-c3ccc(F)cc3)n3c2CCC3)cc(=O)n(C)c1=O
-4%	x	-0.2%	x	O=C(NCCCn1ccnc1)c1cccc(S(=O)(=O)Nc2ccc(F)cc2)c1
-8%	0	-0.1%	-11%	CCOc1ccc2nc3c(cc2c1)CN(CCOC)C(=NC)S3
-3%	0	3.2%	1%	CSCCC(NC(N)=O)C(=O)N(C)CC(=O)Nc1cc(C)ccc1C (configuration not stated)
-18%	3&-15	-1.7%	6%	COC(=O)CCCC1=CC2=CC(=O)C(C)(OC(=O)c3cccs3)C(=O)C2=CN1CCCCO (configuration not stated)
-11%	-7	2.8%	-1%	CCC(Sc1nc(-c2ccccc2)c(C#N)c(=O)[nH]1)C(=O)Nc1cc(C)on1 (configuration not stated)
9%	-16	2.6%	-33%	CC(C)c1nc2oc3ccccc3c(=O)c2c(=O)n1-c1ccccc1
-16%	x	-0.2%	-6%	Cc1ccc(NS(=O)(=O)N2CCOCC2)cc1Cl
-3%	x	u	-1%	CC(C)(C)C(=O)NC1CC2CCCC(C1)N2C(=O)Nc1cccc(Cl)c1 (configuration not stated)
3%	-22	-3.6%	1%	CC(C)COC(=O)NCC12C=CC(O1)C1C(=O)N(c3ccc(Cl)cc3)C(=O)C12 (configuration not stated)
1%	-15	-0.1%	-11%	O=C(Nc1ccc2ccccc2c1)N1CCN(c2ncccc2C(F)(F)F)CC1
26%	x	4.2%	x	COc1ccc(C(CNC(=O)C2COc3ccccc3O2)N2CCCC2)cc1 (configuration not stated)
2%	-14	-0.5%	-6%	COC(=O)C1C2C=CC3(CN(CCc4ccccc4)C(=O)C13)O2 (configuration not stated)
-4%	x	0.1%	x	CCN(Cc1ccccc1)C(=O)COC(=O)[C@@H]1CCCN1C(=O)c1cccs1
10%	2	-0.4%	-18%	Cc1ccc(CNC(=O)C(=O)NCC2CCCO2)cc1 (configuration not stated)
16%	x	u	x	O=c1c2c(-c3cccs3)csc2ncn1/N=C/c1ccccn1
34%	0	2.9%	0%	O=C(COC(=O)C1=COCCO1)Nc1cc(S(=O)(=O)N2CCCCC2)ccc1Cl
-12%	x	2.5%	x	O=C(NC(=S)Nc1ccccc1OC(F)F)c1ccc2c(c1)OCO2
-8%	x	-1.6%	0%	CCOc1ccccc1/C=N/n1c(C)nc2ccccc2c1=O
-10%	13	4.6%	-11%	O=C(c1ccc(F)cc1)n1c(NCc2ccccc2)n[nH]c1=S
22%	5	0.4%	-4%	Brc1cccc(/C=N/Nc2nn[nH]n2)c1
-6%	0	0.2%	-23%	O=C(Nc1ccc(Cl)cc1)N1CCN(c2ncccn2)CC1
27%	4	-0.4%	-19%	Cc1ccc(-n2c([C@@H]3C[C@H]3c3ccccc3)n[nH]c2=S)cc1
-7%	0	-0.1%	-4%	CC(Oc1ccc(Cl)cc1Cl)C(=O)/C=C/N(C)C (configuration not stated)
-1%	-7	-3.2%	-5%	NC(=O)c1nn(-c2cccc(Cl)c2)c(=O)cc1O
-2%	x	0.7%	x	N#Cc1c(NC(=O)COC(=O)c2ccc(O)cc2O)sc2c1CCC2
12%	x	-0.6%	-10%	CN1CCC(=NNC(=O)CN(c2ccc([N+](=O)[O-])cc2)S(=O)(=O)c2ccccc2)CC1
-13%	0	u	-5%	Cc1ccc(-n2nnnc2SCc2nc3sc(C)c(C)c3c(=O)[nH]2)cc1
10%	-5	0.3%	-2%	CC(C)=Cc1oc2ccc([N+](=O)[O-])cc2c1N1CC(C)OC(C)C1 (configuration not stated)
4%	x	-0.5%	x	O=CNc1cc2c(cc1Br)-c1ccccc1C2O (configuration not stated)
11%	-10	u	u	CN(C)c1ccc(/C=C/c2cc[n+](C)cc2)cc1
10%	x	-1.0%	x	C=CCn1c(SCC(=O)N(C(C)CC)C2CCS(=O)(=O)C2)nc2ccccc2c1=O (configuration not stated)
18%	x	4.9%	x	CC(NC(=O)COC(=O)c1cc2ccccc2cc1O)c1ccccc1 (configuration not stated)
-2%	0	3.6%	-12%	CC1(C)C(c2ccccc2)=NC(c2ccccc2)N1O (configuration not stated)
-5%	x	0.0%	-14%&3%	COc1ccc(C(=O)c2sc(Nc3ccccc3)nc2N)cc1
17%	-10	2.6%	-5%	Cc1ccc(C(=O)NCCN2CCCC2)cc1
-11%	-9	1.2%	-17%	CCCCOc1cccc(NC(=O)CSc2nccn2C)c1
16%	-14	0.3%	-14%	O=C(NCc1ccncc1)C(=O)Nc1nc2ccccc2s1
8%	x	0.9%	-3%	O=C(OCCOCCN=C1NS(=O)(=O)c2ccccc21)c1ccccc1
3%	-2	-2.5%	-3%	O=C(OCc1cc2ccccc2[nH]c1=O)C1CCCO1 (configuration not stated)
0%	x	-0.4%	-4%	COc1ccc(CN2CCNC(=O)C2CC(=O)NCCc2nc(C)c(C)s2)cc1C (configuration not stated)
22%	2	-1.3%	-10%	N#CCSc1nnc(Cc2ccc3c(c2)OCO3)o1
9%	x	1.9%	x	Cc1ccc(S(=O)(=O)N(C)C)cc1NC(=O)COC(=O)CC1CCCC1
15%	x	-0.8%	x	CC(CCC(=O)O)(c1ccc(O)cc1)c1ccc(O)cc1
0%	x	2.7%	0%	Cc1ccc(N2CC(C(=O)Nc3nnc(SCCN4CCOCC4)s3)CC2=O)cc1C (configuration not stated)
0%	x	2.5%	-46%	OCc1ccccc1OCCCOc1cccc2cccnc12
u	-1	u	-3%	CCOC(=O)C1=C(C)N(C)C(=O)NC1c1cc2c(cc1[N+](=O)[O-])OCO2 (configuration not stated)
-13%	-11	3.6%	-4%	O=C(COc1ccccc1-c1ccccc1)c1ccccc1
-7%	-5	-3.7%	-7%	Cc1nc(SCC(=O)NCCc2ccccc2)nc(C)c1C

Profiles, quoted from the list. Screens in order: Rango dissoc inh | GLA inh pH 4.5 | Rango-impB inh | miR-21 FLuc
Record of O=C(OCCOCCN=C1NS(=O)(=O)c2ccccc21)c1ccccc1 = 8% | x | 0.9% | -3%
Record of Cc1cccc2cc(C(c3nnnn3C(C)(C)C)N3CCN(C(=O)c4ccco4)CC3)c(=O)[nH]c12 (configuration not stated) = -2% | -6 | -0.5% | -5%
Record of O=c1c2cc(Cl)ccc2nc(-c2ccc(Cl)c(Cl)c2)n1O = 17% | 5 | 3.7% | 0%
Record of O=C(COc1ccccc1-c1ccccc1)c1ccccc1 = -13% | -11 | 3.6% | -4%
Record of CCOC(=O)Nc1ccc2c(c1)N(C(=O)N(C)C)c1ccccc1CC2 = -11% | -3 | -5.0% | -5%

Back to the main list with the two entries that preceded the break.
Rango dissoc inh	GLA inh pH 4.5	Rango-impB inh	miR-21 FLuc	Compound
-13%	-11	3.6%	-4%	O=C(COc1ccccc1-c1ccccc1)c1ccccc1
-7%	-5	-3.7%	-7%	Cc1nc(SCC(=O)NCCc2ccccc2)nc(C)c1C
4%	-8	-1.9%	-3%	CCOC(=O)/C(C#N)=C1\C=CN(C)C(C)=N1
20%	0	-3.5%	5%	CC(C)Nc1nc(-c2ccccn2)nc(-c2ccccc2)c1C#N
-10%	x	-1.0%	0%	CC(=O)c1cccc(N(CC(=O)Nc2ccc(S(=O)(=O)N3CCCC3)cc2)S(C)(=O)=O)c1
1%	6	6.1%	-6%	COc1ccc(-c2oc3ncn4nc(COc5ccccc5)nc4c3c2-c2ccc(OC)cc2)cc1
-5%	5	0.2%	-64%	CCCn1cnc2cc(NCc3cccs3)ccc21
12%	x	5.9%	x	O=C(O)CN1CCNCCN(CC(=O)O)CCNCC1
3%	x	-2.7%	0%	CCCCC(C(=O)NC1CCCC1)N(C(=O)c1snc(C(N)=O)c1N)c1ccc(C)cc1 (configuration not stated)
-16%	x	-2.4%	0%	COc1cccc(Nc2ncnc3onc(-c4ccccc4OC)c23)c1
-18%	5	-3.4%	-7%	CCOC(=O)c1nc(C)n(-c2ccc([N+](=O)[O-])cc2)n1
17%	x	2.7%	3%	CCOc1ccc(S(=O)(=O)N(CC(=O)N2CCC(C(N)=O)CC2)c2ccc(F)cc2)cc1
-17%	x	0.3%	0%	CN(C)S(=O)(=O)N1CCC(n2nccc2NC(=O)CCCc2ccccc2)CC1
15%	x	-0.9%	-28%	CC1CCN(C(=O)c2cc(-c3ccc4c(c3)OCO4)on2)CC1
12%	2	1.1%	-2%	CC(=O)c1cccc(NC(=O)c2cccc(S(=O)(=O)N(C)C)c2)c1
16%	6	2.9%	0%	CCN(CC)S(=O)(=O)c1ccc(O)c(NC(=O)CN2CCc3ccccc3C2)c1
x	6	x	-48%	COc1ccc(N=c2oc3ccccc3cc2C(=O)Nc2ccccn2)cc1OC
7%	-6	-1.9%	-1%	Cc1ccc(S(=O)(=O)N2CCCCC2)cc1NC(=O)COC(=O)c1ccccc1F
7%	-7	3.4%	9%	N#CCCn1cc(C(=O)Nc2ccccc2Br)c(-c2cccs2)n1
15%	x	8.4%	-3%	O=C(Nc1cccc(Cl)c1N1CCOCC1)c1cc([N+](=O)[O-])ccc1N1CCOCC1
-3%	1	0.0%	-3%	O=C(Nc1ccccc1-c1nnc(SCc2ccc(Cl)cc2)o1)c1ccccc1
3%	6	0.8%	-39%	CC(=O)NCC(=O)OCC(=O)Nc1nc(-c2ccccc2)cs1
2%	x	-1.7%	x	O=C(C[C@H]1C/C=C\CC[C@H](Cc2ccc(F)cc2)C(=O)O[C@@H](c2ccccc2)CNC1=O)N[C@@H](CO)Cc1ccccc1
0%	1	4.8%	4%	CC(C)c1ccc(S(=O)(=O)Nc2ccc(SC(F)F)cc2)cc1
19%	-3	-0.6%	0%	COc1ccc(NC(=O)N2CCN(c3nc4ccccc4n3C(C)C)CC2)cc1
12%	-5	-5.1%	-1%	CCS(=O)(=O)c1nc(S(=O)(=O)c2ccc(C)cc2)c(NCCCN(C)C)s1
1%	3[21.1 µM]	-0.5%	4%	CCOC(CNC(=O)Cn1nc(C)c2ccccc21)OCC
u	x	u	-1%	COC(=O)/C(C#N)=C/c1c(N2CCN(C)CC2)nc2ccccn2c1=O
7%	x	-0.5%	-9%	CCc1ccc(-n2cnc3cc(C(=O)NCC(OC)OC)ccc32)cc1
10%	-2	1.5%	1%	CN1C(=S)SC(C)(C)C1(C)NO (configuration not stated)
22%	0	1.4%	-4%	Cn1c(=O)oc2cc(S(=O)(=O)Nc3cccc(F)c3)ccc21
1%	2	-1.4%	-7%	CCN(CC)CCCNCC(=O)Nc1ccc2c(c1)CCC2

Shown bar-delimited: 2 of the compounds above
SMILES | Rango dissoc inh | GLA inh pH 4.5 | Rango-impB inh | miR-21 FLuc
CN(C)S(=O)(=O)N1CCC(n2nccc2NC(=O)CCCc2ccccc2)CC1 | -17% | x | 0.3% | 0%
O=C(Nc1ccccc1-c1nnc(SCc2ccc(Cl)cc2)o1)c1ccccc1 | -3% | 1 | 0.0% | -3%

Some of the compounds tested; count on the stated rates, not on these rows.
